HCMV UL50-53 inh – cytomegalovirus nuclear egress complex inhibition. inhibition, % (no concentration beside the values). 190,000 tested, 0.15% active. HTRF UL50-UL53 interaction, normalized percent inhibition. AID 1918969;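 active means both replicates at 50% or more, plus weaker picks with an unusually low signal ratio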;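 further: stock transfer was 100 nL into about 20 µL; 0% = negative control wells and 100% = wells with untagged competitor protein; inactives centre near -12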
GIV-Gai inh – blocks GIV peptide binding to rat Galpha-i3; P08753; Galpha-i3/FITC-GIV peptide fluorescence polarization, 90 min; active compounds read low; scaled: aluminum fluoride 0%, vehicle 100%; percent of control (FP), % (concentration not given with the values); 210,000 tested, 0.42% active;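 active means replicate mean at 85% of control or lower, very high polarization wells dropped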;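 further: wells of about 15 µL received 100 nL stock; the first replicate is given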
Target sequence (P08753 whole entry, looked up): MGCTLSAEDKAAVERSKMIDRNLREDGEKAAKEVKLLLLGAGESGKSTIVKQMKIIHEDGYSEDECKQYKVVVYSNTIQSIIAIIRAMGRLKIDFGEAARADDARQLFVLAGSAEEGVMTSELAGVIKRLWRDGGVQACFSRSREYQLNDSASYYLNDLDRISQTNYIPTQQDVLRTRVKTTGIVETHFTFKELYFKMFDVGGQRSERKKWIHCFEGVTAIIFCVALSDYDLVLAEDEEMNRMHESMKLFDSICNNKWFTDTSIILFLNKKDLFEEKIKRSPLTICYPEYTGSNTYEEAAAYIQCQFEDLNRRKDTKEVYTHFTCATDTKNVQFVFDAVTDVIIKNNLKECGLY
Sa growth 42C – inhibitors of Staphylococcus aureus growth at 42 °C; 170,000 tested, 0.53% active; relative growth, % (concentration not given with the values); S. aureus RN4220 growth, OD600, 20 h; active compounds read low;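 active means growth at 42 °C up to 50% and 20 or more points under that at 30 °C, or under 10% at both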;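 further: 300 nL library stock went into each well; scaled to the means of positive and negative controls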
Sa growth 42C second temp – further read-out of Sa growth 42C, marked with its call; relative growth, %; measured here: growth at 30 °C;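 optical density after 20 h as mean of two plates; 100% = untreated growth and lower means inhibition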
Numbers without * were called inactive; . = not tested or not shown; & = joins results of further samples.

Sample of the layout (2 entries):
item | structure | GIV-Gai inh | HCMV UL50-53 inh
1 | O=C(O)c1c2c(nc3ccccc13)CCC(c1ccccc1)C2 (stereo not drawn) | 102 | .
2 | CCn1c(=O)n(CC(=O)O)c(=O)c2cnc(-c3ccccc3)nc21 | 95 | -26

item | Sa growth 42C second temp | Sa growth 42C
1 | 83 | 121
2 | . | .

All compounds of this part, from the first entry:
item | structure | GIV-Gai inh | HCMV UL50-53 inh
1 | O=C(O)c1c2c(nc3ccccc13)CCC(c1ccccc1)C2 (stereo not drawn) | 102 | .
2 | CCn1c(=O)n(CC(=O)O)c(=O)c2cnc(-c3ccccc3)nc21 | 95 | -26
3 | COc1ccc(CCNc2oc(COc3cccc(C)c3)nc2C#N)cc1OC | 106 | 8
4 | CC(C)Oc1ccc(C(=O)NC(CC(=O)O)c2ccccc2)cc1 (stereo not drawn) | 99 | .
5 | Cc1ccc(NC(=O)CSc2nccn2C2CCCC2)cc1 | 106 | .
6 | Cc1ccc(-c2nc(CS(=O)CC(=O)NCCN3CCCC3)c(C)o2)cc1 (stereo not drawn) | 100 | -3
7 | CCC(C)Nc1nc2c(c(=O)[nH]c(=O)n2C)n1Cc1ccc(F)cc1 (stereo not drawn) | 103 | -41
8 | CSc1ccc(C2C(C(=O)Nc3cccc(C(F)(F)F)c3)=C(C)NC3=C2C(=O)CC(C)(C)C3)cc1 (stereo not drawn) | 102 | 6
9 | O=C(NCc1ccccc1)c1ccc(CS(=O)(=O)c2ccccc2)o1 | 96 | 7
10 | NS(=O)(=O)c1ccc(NC(=O)CN2CCCc3ccccc32)cc1 | 97 | 28
11 | Cc1ccc(NC(=O)c2cnn3c(C(F)F)cc(-c4ccccc4)nc23)cc1F | 98 | -3
12 | CC1(c2ccc(OC(F)F)cc2)NC(=O)N(/N=C/c2ccncc2)C1=O (stereo not drawn) | . | -12
13 | CCOc1ccc(NC(=O)C(CC)n2nc(-c3ccc(C)cc3)ccc2=O)cc1 (stereo not drawn) | 101 | -117
14 | COc1ccc(-n2nc(C(=O)N3CCN(c4cccc(C)c4)C(C)C3)c3c4ccccc4n(C)c3c2=O)cc1 (stereo not drawn) | 104 | 4
15 | CCOC(=O)c1cn(CC)c2cc(N3CCCC3)c(F)cc2c1=O | 105 | -2

item | Sa growth 42C second temp | Sa growth 42C
1 | 83 | 121
2 | . | .
3 | 101 | 109
4 | 92 | 85
5 | 87 | 124
6 | 94 | 123
7 | 92 | 111
8 | . | .
9 | 99 | 126
10 | 88 | 104
11 | 95 | 100
12 | 96 | 93
13 | . | .
14 | 86 | 111
15 | 70 | 89

Continued.
item | structure | GIV-Gai inh | HCMV UL50-53 inh
16 | Cc1nn(-c2ccc(Cl)cc2)c2sc(C(=O)NC3CCC(O)CC3)cc12 (stereo not drawn) | . | 16
17 | COc1ccc(NC(=O)CN2C(=O)CSc3ccc(C(=O)N4CCCC4)cc32)cc1 | 102 | -34
18 | Cc1nn(C)c(C)c1CNC(=O)NC1CCCC1 | 110&101 | -35&-24
19 | COc1ccc(Cn2c(C(=O)O)c(CNCCc3ccco3)c3ccc(C)cc32)cc1 | 109 | .
20 | CCOc1ccc(-n2c(=O)c3sc4ncccc4c3n(CC(=O)NC3CCCCC3)c2=O)cc1 | 111 | -14
21 | O=C(Cc1coc2cc3c(cc12)CCC3)N1CCc2ccccc21 | . | 7
22 | CNC(=O)C1CCC(Cn2c(=O)c3sccc3n(CC(=O)NCc3ccc(OC)cc3)c2=O)CC1 (stereo not drawn) | 101 | .
23 | O=C(COc1ccc2c(c1)OCO2)c1ccc(F)cc1 | . | -16
24 | NCC(c1ccccc1)N1CCCC1 (stereo not drawn) | . | -3
25 | Cc1nn(-c2ccccc2)c(N)c1N=Nc1ccc(S(=O)(=O)N2CCOCC2)cc1 | 105 | -117
26 | O=c1c(Br)c(N2CCc3ccccc3C2)cnn1-c1ccccc1 | . | -35
27 | Clc1ccc(C2CC(C3CC3)=NN2c2ccccc2)cc1 (stereo not drawn) | . | -10
28 | CC(C)Oc1ccc(CNC(=O)C2CCN(Cc3cc4ccccc4n3Cc3ccccc3)CC2)cc1 | 97 | .
29 | O=C(NC1CCCCC1)c1ccccc1NS(=O)(=O)c1ccc(F)c(F)c1 | . | -17
30 | O=c1c2c(-c3ccccc3)csc2nc2n1CCCCC2 | . | -12

item | Sa growth 42C second temp | Sa growth 42C
16 | 104 | 95
17 | . | .
18 | 91 | 99
19 | 72 | 112
20 | . | .
21 | 97 | 103
22 | 97 | 106
23 | 80 | 90
24 | 96 | 100
25 | 76 | 88
26 | 96 | 76
27 | 94 | 86
28 | 98 | 109
29 | 10 | 48
30 | 77 | 105

Additional structures
item | structure | GIV-Gai inh | HCMV UL50-53 inh
31 | O=c1oc(-c2ccccc2F)nc2sc3c(c12)CCCC3 | 104 | -11
32 | C/C(=C\C(=O)Nc1ccc(Cl)cc1)N1CCN(Cc2ccccc2)CC1 | . | 4
33 | Cc1nc2cc(NS(=O)(=O)c3ccccc3)ccc2n1-c1ccccc1 | . | -24
34 | C=CCNC(=O)N1CC(Oc2ccc(Cl)cc2)C1 | 107 | -4
35 | CN(C)C(=O)c1ccc2c(c1)N(CC(=O)N1CCN(c3ccccn3)CC1)C(=O)CS2 | 111 | -16
36 | COc1ccc(-c2cc(C(F)(F)F)n3nc(C(=O)NCC4CCCO4)c(Cl)c3n2)cc1OC (stereo not drawn) | 108 | -13
37 | Cc1cc(=O)oc2c(CN3CCCCC3)c(O)ccc12 | 109 | .
38 | Cc1cccc(CN2C(=O)c3ccccc3S(=O)(=O)c3ccc(C(=O)N4CCN(c5cc(C)ccc5C)CC4)cc32)c1 | 104 | -12
39 | Cc1ccc2[nH]c(=O)c(CN(C(=O)c3cccs3)C3CCCCC3)cc2c1 | . | -4
40 | CC(NS(C)(=O)=O)C(c1cccs1)N1CCN(Cc2ccccc2)CC1 (stereo not drawn) | 101 | 4
41 | CCN(CC)C(=O)c1sc2c(c1C)c(=O)n(-c1ccc(C)c(C)c1)c(=O)n2Cc1cc(=O)n2c(C)cccc2n1 | 102 | .
42 | COc1ccc(/C=C2\N=C(c3cc([N+](=O)[O-])ccc3Cl)OC2=O)cc1OC(C)=O | 105 | -20
43 | CCn1c(SCCC#N)nc2cc(S(=O)(=O)N3CCCCC3)ccc21 | . | -32
44 | O=C(CSc1nnc(-c2c[nH]c3ccccc23)o1)NC(=O)Nc1ccccc1F | . | -17
45 | Cc1oc(-c2cccc(Cl)c2)nc1CSc1nnc(C)n2c1cc1occc12 | 103 | .

item | Sa growth 42C second temp | Sa growth 42C
31 | . | .
32 | 100 | 98
33 | 86 | 89
34 | 89 | 106
35 | . | .
36 | . | .
37 | 87 | 113
38 | 91 | 94
39 | 86 | 106
40 | 100 | 96
41 | 86 | 96
42 | . | .
43 | 85 | 104
44 | 88 | 99
45 | 87 | 97

Carrying on:
item | structure | GIV-Gai inh | HCMV UL50-53 inh
46 | Cc1cc(=O)n2c(n1)NC(Nc1cccc(C)c1C)=NC2c1cccc(Cl)c1 (stereo not drawn) | 102 | -20
47 | O=C(O)CSc1nccn1-c1ccc(Br)cc1 | . | -10
48 | CCCCNC(=O)C1CCCN(Cc2nc(-c3ccc(Cl)cc3)oc2C)C1 (stereo not drawn) | 104 | -6
49 | Cc1ccc(C)c(Cn2c3ccccc3c3cnn(CC(=O)N4CCCCC4)c(=O)c32)c1 | 107 | -10
50 | CCN(CC)/C(N)=N/c1nc(C)cc(C)n1 | 103 | -18
51 | Cc1ccc(S(=O)(=O)N(CCc2ccccc2)CC(=O)Nc2ccc(C(C)C)cc2)cc1 | 102 | .
52 | CCc1cc2c(cc(C(=O)OC)n2Cc2ccc(Br)cc2F)s1 | 102 | .
53 | Cc1ccc(-c2nc(S(=O)(=O)c3ccc(C)cc3)c(SCC(=O)NC3CCCCC3)o2)cc1 | 102 | -25
54 | Cc1ccc(C)c(N2CCN(CCCNC(=O)Nc3cn(CC(C)C)c(=O)c4ccccc34)CC2)c1 | 103 | -30
55 | CC1(C)C(=O)N(CC(=O)Nc2ccc3c(c2)OCCO3)c2ccc(S(=O)(=O)N3CCCCC3)cc21 | 104 | -7
56 | CC(C)c1ccc(NC(=O)c2ccc(NC(=O)CCS(=O)(=O)c3cccs3)cc2)cc1 | 109 | -14
57 | CCc1noc2c1/C(=N\O)CC(c1ccccc1)C2 (stereo not drawn) | . | -9
58 | COC(=O)Cn1c(C2CC(=O)N(c3c(C)cccc3C)C2)nc2ccccc21 (stereo not drawn) | 100 | -28
59 | CC(=O)Nc1ccc2c(CSc3nnc(-c4ccco4)n3C)cc(=O)oc2c1 | . | -27
60 | O=c1c2c(nc3nc(CCc4ccccc4)[nH]n13)CCC2 | 95 | -20

item | Sa growth 42C second temp | Sa growth 42C
46 | . | .
47 | 91 | 100
48 | 91 | 102
49 | 90 | 95
50 | 99 | 105
51 | 83 | 105
52 | 88 | 89
53 | 93 | 89
54 | 83 | 98
55 | . | .
56 | 90 | 99
57 | 89 | 86
58 | 83 | 97
59 | 93 | 81
60 | . | .

The listing continues:
item | structure | GIV-Gai inh | HCMV UL50-53 inh
61 | Cc1cccc(NC(=O)c2cc3nc(-c4ccc(Br)cc4)cc(C(F)(F)F)n3n2)n1 | 99 | 27
62 | CCc1ccccc1NC(=O)CSc1nnc(C)n1CC | 101 | -14
63 | c1ccc(CSCc2nc3ccccc3[nH]2)cc1 | . | -4
64 | O=C(/C=C/c1ccc(Br)o1)OCC(=O)N1CCc2ccccc21 | . | -2
65 | CC(C)(C)NC(=O)c1ccccc1NC(=O)Nc1ccccc1 | 109 | -24
66 | COc1ccc(C(=O)Nc2ccc3nc(SCc4ccc(C)cc4)sc3c2)cc1 | 103 | -22
67 | O=C(NC(Sc1ncccn1)C(=O)c1ccccc1)c1ccccc1 (stereo not drawn) | 101 | .
68 | COc1cccc(Nc2cc(N3CCCCCC3)c3nonc3c2[N+](=O)[O-])c1 | 105 | -12
69 | CCN1CCN(CCCNC(=O)c2cc3cc4ccc(Cl)cc4nc3o2)CC1 | 111 | .
70 | COCCCNC(=O)C(=O)NCc1n[nH]c(=O)c2ccccc12 | 104 | -26
71 | O=C(Nc1noc2ccccc12)C1CC1 | 97 | -17
72 | CC/C(C)=N/Nc1ccc(S(=O)(=O)N(CC)CC)cn1 | . | -5
73 | Cc1noc2ncnc(N3CCC(C(N)=O)CC3)c12 | 99 | 4
74 | Cc1cccc(N2CCN(C(=O)C3CCCN(S(=O)(=O)c4ccc(Br)s4)C3)CC2)c1C (stereo not drawn) | 107 | -4
75 | Cc1cc(C)c(/C=N/O)c(C)c1/C=N/O | 106 | -18

item | Sa growth 42C second temp | Sa growth 42C
61 | . | .
62 | 100 | 106
63 | 92 | 111
64 | 100 | 80
65 | 111 | 101
66 | 85 | 96
67 | 74 | 82
68 | . | .
69 | 92 | 97
70 | . | .
71 | . | .
72 | 90 | 115
73 | 101 | 90
74 | 88 | 107
75 | 81 | 93

Some of these compounds in order of the Sa growth 42C value, rising.
cpd	compound	GIV-Gai inh	Sa growth 42C second temp	Sa growth 42C
25	Cc1nn(-c2ccccc2)c(N)c1N=Nc1ccc(S(=O)(=O)N2CCOCC2)cc1	105	76	88
53	Cc1ccc(-c2nc(S(=O)(=O)c3ccc(C)cc3)c(SCC(=O)NC3CCCCC3)o2)cc1	102	93	89
38	Cc1cccc(CN2C(=O)c3ccccc3S(=O)(=O)c3ccc(C(=O)N4CCN(c5cc(C)ccc5C)CC4)cc32)c1	104	91	94
43	CCn1c(SCCC#N)nc2cc(S(=O)(=O)N3CCCCC3)ccc21	.	85	104
19	COc1ccc(Cn2c(C(=O)O)c(CNCCc3ccco3)c3ccc(C)cc32)cc1	109	72	112

Pulled by structure from above:
item | structure | GIV-Gai inh | HCMV UL50-53 inh
68 | COc1cccc(Nc2cc(N3CCCCCC3)c3nonc3c2[N+](=O)[O-])c1 | 105 | -12
23 | O=C(COc1ccc2c(c1)OCO2)c1ccc(F)cc1 | . | -16
73 | Cc1noc2ncnc(N3CCC(C(N)=O)CC3)c12 | 99 | 4
19 | COc1ccc(Cn2c(C(=O)O)c(CNCCc3ccco3)c3ccc(C)cc32)cc1 | 109 | .

item | Sa growth 42C second temp | Sa growth 42C
68 | . | .
23 | 80 | 90
73 | 101 | 90
19 | 72 | 112

(list continues)
item | structure | GIV-Gai inh | HCMV UL50-53 inh
76 | Cn1nc(C2CC2)cc1NC(=O)COc1ccc(Cl)cc1Cl | 100 | -20
77 | Cc1ccc(NC(=O)CC2Sc3ccc(C(F)(F)F)cc3NC2=O)cc1 (stereo not drawn) | 103 | .
78 | Cc1nn(-c2ccccc2)c2nc(-c3ccco3)cc(C(=O)O)c12 | . | -60
79 | CCc1ccc(C(=O)c2c(N)c(-c3nc(-c4ccc5c(c4)OCO5)cs3)c3ccccn23)cc1 | 112 | -17

item | Sa growth 42C second temp | Sa growth 42C
76 | 84 | 91
77 | 81 | 126
78 | 66 | 83
79 | 87 | 99

Profiles as entered above.
Cn1nc(C2CC2)cc1NC(=O)COc1ccc(Cl)cc1Cl is entered as GIV-Gai inh: 100; HCMV UL50-53 inh: -20; Sa growth 42C second temp: 84; Sa growth 42C: 91
Cc1ccc(NC(=O)CC2Sc3ccc(C(F)(F)F)cc3NC2=O)cc1 (stereo not drawn) is entered as GIV-Gai inh: 103; HCMV UL50-53 inh: .; Sa growth 42C second temp: 81; Sa growth 42C: 126
